T cruzi inh = blocks replication of Trypanosoma cruzi | actives 1.4% (n = 300,000) | inhibition, % (test concentration not listed) | AID 1885 | T. cruzi beta-gal in NIH3T3, luminescence, 90 h;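 active = mean inhibition across valid replicates above about 55%, limit read from the data; inconclusive = mean below that limit but half or more replicates reach it; inactive = mean below it, under half of replicates reach it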;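 note: signal also drops with host cell toxicity which is not excluded here; 0% = plate median of DMSO wells and 100% = zero luminescence signal; higher percent means less beta-gal luminescence so fewer parasites; stock transfer was 50 nL into about 50 µL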
A1 inh = inhibitors of the anti-apoptotic protein A1, read as caspase activation | MEF A1-2A-BIM cells, Caspase-Glo 3/7 luminescence, 3 h; percent of clofoctol response, vehicle zero | caspase activation, % (concentration not given with the values) | actives 0.066% (n = 330,000) | AID 2462;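 active = over half of replicate activation scores above 10%, or exactly half above 10 with the replicate mean above 10; inconclusive = replicate mean below 10 yet half the replicates above 10; inactive = over half of replicates below 10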;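 note: wells of about 30 µL received 50 nL stock; many hits fall short of the cut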
AF4-AF9 inh = MLL-AF4/AF9 protein interaction inhibition; AlphaScreen, biotin-AF4 peptide binding to FLAG-AF9; AID 651704; P42568; inhibition, % at 10 µM; actives 0.47% (n = 350,000);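 active = every replicate reaching a set inhibition limit, whatever the replicate mean, cut at about 25% in these data; inconclusive = mean inhibition reaches that limit but some replicates miss it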;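 note: 0% = plate neutral control median and 100% = total signal loss; the record names both 10 and 1 µM as test concentration; the first replicate is given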
Target sequence (P42568 whole entry, looked up): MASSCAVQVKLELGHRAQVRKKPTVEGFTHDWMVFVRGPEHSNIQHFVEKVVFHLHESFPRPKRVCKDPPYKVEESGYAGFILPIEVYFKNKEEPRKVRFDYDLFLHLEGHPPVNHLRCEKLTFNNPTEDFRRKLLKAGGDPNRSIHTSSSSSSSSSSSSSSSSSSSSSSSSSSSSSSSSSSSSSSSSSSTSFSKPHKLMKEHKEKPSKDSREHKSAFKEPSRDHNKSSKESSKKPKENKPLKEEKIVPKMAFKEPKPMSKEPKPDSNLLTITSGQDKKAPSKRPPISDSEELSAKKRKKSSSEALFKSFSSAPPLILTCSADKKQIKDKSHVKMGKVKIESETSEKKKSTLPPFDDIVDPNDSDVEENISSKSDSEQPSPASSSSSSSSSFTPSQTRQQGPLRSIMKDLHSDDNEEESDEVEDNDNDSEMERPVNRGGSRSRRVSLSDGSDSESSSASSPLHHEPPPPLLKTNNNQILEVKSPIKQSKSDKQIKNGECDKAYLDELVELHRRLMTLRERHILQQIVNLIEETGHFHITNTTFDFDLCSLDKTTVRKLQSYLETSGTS
Beta apoptosis = blocks beta cell apoptosis; INS-1E cytokine-induced death, ATP luminescence, 48 h; percent of positive-control rescue, neutral wells zero; protection from apoptosis, % (concentration not given with the values); actives 0.8% (n = 300,000);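 active = all replicates at 75% or more, or half of them and the mean; inconclusive = half reach 75% but not the mean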;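 note: 0% = cytokine-treated negative control wells and 100% = positive control rescue; higher means more ATP so stronger rescue from cytokine killing; wells of about 40 µL received 100 nL stock; the first replicate is given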
RanGTP-Impb inh = disruptors of Ran-importin-beta complex formation – biochemical, FRET, CFP-Ran, YFP-importin-beta, homogeneous, primary screen | actives 1.1% (n = 300,000) | inhibition, % (test concentration not listed) | AID 2216 | cell-free CFP-Ran/YFP-importin-beta FRET ratio;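 active = most replicates above 15%; inconclusive = exactly half above 15%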;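 note: 0% = DMSO wells and 100% = Ran loaded with GDP instead of GTP; wells of about 40 µL received 100 nL stock; the first replicate is given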
Calb FLC = C. albicans growth modulation with fluconazole; AID 1979; growth inhibition, % (test concentration not listed); actives 0.57% (n = 300,000); C. albicans CaCi-2 (fluconazole-resistant clinical isolate) + fluconazole, Alamar Blue growth, 48 h;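 active = most replicates above 75%; inconclusive = exactly half above 75%; inactive = most below 75%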;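 note: all wells also contain fluconazole at 8 µg/ml as a sub-toxic cotreatment; 0% = median of DMSO wells and 100% = median of geldanamycin control wells; wells of about 8 µL received 7.5 nL stock; the first replicate is given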
Vif TR-FRET = HIV-1 Vif–A3G interaction blockers – biochemical, TR-FRET, GST-Vif 1-94, biotin-A3G peptide, dose response retest, primary screen (AID 1117319) | TR-FRET GST-Vif / biotin-A3G peptide binding; higher % means a stronger effect; test concentration not given here; strong numbers were not always called active | inhibition, %; hits with a dose series show IC50 in µM | actives 0.57% (n = 260,000);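 active = above the screen mean plus three standard deviations and confirmed in dose response; inconclusive = results disagree or hit not tested in dose response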;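 note: Vif residues 1-94 fused to GST binding biotinylated APOBEC3G peptide 110-148; 0% = full assay without inhibitor and 100% = GST in place of GST-Vif; retest series ran down from 100 µM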
Ecoli rRNA inh = inhibits bacterial ribosomal RNA function over humanized ribosomes; E. coli WT GFP vs humanized-ribosome RFP mutants, fluorescence, 24 h; stronger effect = lower value; DMSO median 0, no signal -100; GFP signal change (wild-type ribosome), % (no concentration beside the values); actives 1.6% (n = 350,000); AID 720706;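 active = significant combined selectivity score with lowered wild-type GFP, culture density cut under 30%, mutant RFP and density less affected; inactive = any of these conditions unmet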; note: one replicate is shown; some compounds called inactive have numbers as strong as hits
Ecoli rRNA inh OD600 = recorded beside Ecoli rRNA inh, whose call it bears; OD600 change, %; measured here: OD600 growth;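 optical density of the mix in the first replicate; 0 = DMSO median and -100 = no signal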
Ecoli rRNA inh RFP = recorded beside Ecoli rRNA inh, whose call it bears; RFP signal change, %; measured here: RFP humanized mutant strains;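 first replicate; 0 = DMSO median and -100 = no signal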
An asterisk follows results filed as active; ? = inconclusive; nt = not tested or not shown. Only part of the results is shown; the hit share may differ from the screen's.

SMILES | T cruzi inh | A1 inh | AF4-AF9 inh | Beta apoptosis | RanGTP-Impb inh | Calb FLC | Vif TR-FRET | Ecoli rRNA inh | Ecoli rRNA inh OD600 | Ecoli rRNA inh RFP
Nc1ccc(C(=O)c2cccs2)cn1 | -2 | 0.3 | -1.1 | -3 | 3.3 | 7 | 5% | 5 | 4 | -1.5
O=C(Nc1ccc(-c2cn3ccsc3n2)cc1)C1CC1 | -2 | 0.3 | nt | -1 | -2.5 | -3 | ? | nt | nt | nt
Cc1nnc(SCC(=O)Nn2cnnc2)s1 | -4 | -0.3 | nt | -2 | 1.2 | -7 | 14% | nt | nt | nt
Cc1ccsc1C(C(=O)NC(C)(C)C)N(Cc1ccco1)C(=O)c1csnn1 (stereo unspecified) | 26 | -0.5 | 1.0 | 4 | 1.0 | 0 | 10% | 0 | 6 | 0.9
CC(C)Cc1nc(SCC(=O)Nc2nnc(CC(C)C)s2)n[nH]1 | 0 | 0.3 | 3.2 | 1 | -3.6 | 9 | 21% | 7 | 1 | -0.2
Cc1ccc(N2CC(O)=C(c3ccccc3)C2=N)cc1 | -5 | 0.4 | -2.6 | 3 | -1.0 | 10 | nt | 6 | 12 | -9.2
O=C(Cc1ccc(Cl)cc1)SCc1ccccc1 | nt | 1.2 | -3.1 | 0 | nt | nt | nt | 6 | 10 | -7.4
CC(C)N(C(=S)NCc1ccccc1)C(C)C | -20 | 0.5 | -1.9 | -5 | 0.4 | -6 | nt | 4 | 6 | -0.6
CC(C)(C)c1ccccc1NC(=O)c1ccc(-n2cncn2)c([N+](=O)[O-])c1 | 2 | 0.4 | -34 | 0 | -0.1 | -1 | 2% | -3 | -1 | -0.2
CCN(C(=O)COC(=O)c1ccc(C=O)cc1)c1c(N)n(Cc2ccccc2)c(=O)[nH]c1=O | nt | -1.2 | -1.5 | 3 | nt | nt | 6% | 9 | 12 | -3.0
O=C(Nc1ccc(Cl)cc1)Nc1ccc(N2CCCC2)c(S(=O)(=O)Nc2ccccc2Cl)c1 | 47 | 1.0 | nt | 87* | -2.5 | -2 | nt | nt | nt | nt
O=C(CNc1cccc(S(=O)(=O)N2CCCC2)c1)Nc1cccc(Br)c1 | 18 | -0.4 | -1.2 | 4 | -3.9 | nt | 5% | -14 | -16 | 0.1
Cc1cc(-c2nnc(SCC(=O)Nc3ccccc3)n2C)no1 | -3 | 1.4 | -1.5 | -1 | 0.3 | 12 | nt | 4 | 4 | 0.2
O=C1/C(=C/c2cccc(Br)c2)SC(=S)N1CCC(=O)N(CCO)c1ccccc1 | -1 | 0.0 | -0.4 | -33 | 4.2 | 13 | -11% | -10 | -9 | -2.2
Cc1ccc2cc(C)c3nnc(SCC(=O)Nc4nc5c(s4)CCCC5)n3c2c1C | 6 | 0.2 | nt | 0 | 0.4 | -16 | -4% | nt | nt | nt
CS(=O)(=O)N(CC(=O)N1CCOCC1)c1ccccc1Br | -13 | -4.1 | -2.1 | 3 | -2.3 | -4 | nt | 3 | 5 | -0.9
O=[N+]([O-])c1ccccc1/C=N/n1c(C2CCCCC2)n[nH]c1=S | -16 | 0.4 | nt | -2 | 5.6 | 33 | nt | nt | nt | nt
Cc1cc(OCC(=O)Nc2cnn(CCCC(=O)O)c2)ccc1Cl | -9 | 1.4 | 1.6 | -2 | -2.7 | -9 | nt | -1 | 2 | -1.1
NC(=O)c1cccc(CS(=O)(=O)c2ccc(Cl)cc2)c1 | -11 | -0.3 | 0.3 | -9 | 2.9 | -4 | 3% | 6 | 7 | -1.9
CCOc1c(Cl)cc(CNCc2ccncc2)cc1OC | 0 | 1.0 | 4.0 | 7 | 2.3 | -3 | 10% | 6 | -9 | 1.0
Cc1cc(=O)[nH]c2ccccc12 | 1 | 0.5 | nt | -4 | -0.9 | 0 | -4% | nt | nt | nt
NC(=O)C1CCN(C(=O)c2ccccc2SCC(=O)NCC2CCCCC2)CC1 | -1 | -0.2 | -2.8 | 3 | ? | -10 | nt | -1 | 7 | -0.8
COCC(=O)N(CCc1ccccc1)Cc1cc2cc(C)ccc2nc1Cl | 16 | 0.8 | 0.4 | -4 | -3.1 | -8 | -9% | -10 | -6 | 1.1
Cc1ccc(C(=O)N/N=C\C2CC=CCC2)cc1[N+](=O)[O-] (stereo unspecified) | -26 | 0.9 | -0.2 | -1 | 5.1 | 1 | -10% | -1 | -1 | 2.1

Part of the list above, with values under each structure:
Values run as follows: T cruzi inh	A1 inh	AF4-AF9 inh	Beta apoptosis	RanGTP-Impb inh	Calb FLC	Vif TR-FRET	Ecoli rRNA inh	Ecoli rRNA inh OD600	Ecoli rRNA inh RFP
> O=C(Cc1ccc(Cl)cc1)SCc1ccccc1
 : nt	1.2	-3.1	0	nt	nt	nt	6	10	-7.4
> CC(C)N(C(=S)NCc1ccccc1)C(C)C
 : -20	0.5	-1.9	-5	0.4	-6	nt	4	6	-0.6

Following part
SMILES | T cruzi inh | A1 inh | AF4-AF9 inh | Beta apoptosis | RanGTP-Impb inh | Calb FLC | Vif TR-FRET | Ecoli rRNA inh | Ecoli rRNA inh OD600 | Ecoli rRNA inh RFP
Clc1ccccc1/C=N/N1CCN(Cc2ccccc2)CC1 | 3 | 0.5 | 34* | 0 | -1.6 | 5 | nt | -16 | -3 | 3.0
O=C(CSC1=NS(=O)(=O)c2cc(F)ccc2N1)NCc1ccccc1 | 3 | 0.9 | -1.0 | nt | 4.4 | 1 | 1% | 5 | 7 | -2.1
Cn1c(=O)c2c(ncn2CC(=O)Nc2nc(-c3ccc(F)c(F)c3)cs2)n(C)c1=O | -11 | 1.1 | -7.1 | 3 | -0.8 | -4 | ? | -2 | -2 | -3.5
C=CCNC(=O)c1onc(CSc2ccc(Cl)cc2)c1C(=O)NCC=C | 0 | 1.8 | nt | 8 | -0.7 | 9 | 21% | nt | nt | nt
CCOC(=O)c1cncc(O)c1 | -4 | 0.2 | -5.7 | -10 | 2.6 | 1 | -11% | 5 | 1 | 3.1
O=c1c2cnn(-c3ccccc3)c2ncn1Cc1cccnc1 | 7 | 0.8 | nt | -11 | -4.0 | 3 | 20% | nt | nt | nt
COc1cc(/C=N\NC(=O)CC#N)ccc1OC/C=C/c1ccccc1 | 7 | 0.3 | -1.3 | 3 | -2.0 | ? | nt | 6 | 9 | 1.8
O=C(O)CCCCCNC(=O)OCC1c2ccccc2-c2ccccc21 | -12 | 1.4 | 2.9 | 1 | 0.6 | 1 | -4% | 11 | 15 | 0.3
N#CC(C#N)=C(N)/C(C#N)=C/c1cc(O)c(O)c(O)c1 | nt | -0.6 | 9.2 | 10 | nt | nt | nt | 0 | 7 | 25
CCC(C)NCCOCCOc1cc(C)c(Cl)c(C)c1 (stereo unspecified) | ? | -0.7 | -0.9 | 2 | -0.9 | 0 | nt | 0 | -9 | 6.6
CC1Cc2ccccc2N1C(=O)NC1CC(=O)N(c2ccc3c(c2)OCCO3)C1 (stereo unspecified) | -29 | 0.2 | -9.6 | -1 | 1.1 | 19 | -7% | 5 | 1 | 1.9
Cc1cccc(Cc2c(C)nc3c(C(=O)N4CCN(Cc5ccc6c(c5)OCO6)CC4)cnn3c2C)c1 | 48 | nt | nt | nt | -8.0 | 16 | 7% | nt | nt | nt
Cc1ccc(-n2nc3c(c2NC(=O)C(C)C)CS(=O)(=O)C3)c(C)c1 | -25 | 2.1 | -3.8 | -3 | 2.1 | -2 | -13% | 8 | 7 | -0.3
Cc1nc(COC(=O)c2cc(O)c3ccccc3c2O)cs1 | -9 | nt | -5.2 | nt | 6.3 | 10 | 12% | -20 | -18 | -2.7
CC(C)(C)NC(=O)c1ccncc1 | -3 | 0.6 | nt | -2 | -2.0 | -8 | -7% | nt | nt | nt
CCOc1cc2c3c(c1)C1(C(=O)N3C(C)(C)C=C2C)C(C#N)=C(N)Oc2cc(O)ccc21 (stereo unspecified) | 4 | -0.5 | nt | -7 | 0.0 | 8 | -3% | nt | nt | nt
C[C@H]1COC(=O)CC/C=C\C[C@H](CC(=O)N(CCO)Cc2ccccc2)C(=O)N1 | nt | 1.1 | -1.8 | -2 | nt | nt | nt | 16 | 23 | -1.6
Cc1ccc(C(=O)NCCONC(=O)c2ccc(C)cc2)cc1 | -6 | 0.1 | -0.8 | 1 | 3.4 | -2 | nt | 2 | 1 | 1.9
CN(C)CCCC1(O)c2ccccc2C=Cc2ccccc21 | -29 | -1.1 | nt | -6 | -0.5 | -8 | 13% | nt | nt | nt
O=C(NNS(=O)(=O)c1ccccc1)c1cnn(-c2ccccc2)c1-n1cccc1 | -1 | 0.0 | nt | -2 | 0.4 | 4 | -1% | nt | nt | nt
Cn1c(SCC(=O)N2CCCCCC2)nc2c([nH]c3ccccc32)c1=O | -1 | -0.3 | nt | -4 | ? | 10 | 33% | nt | nt | nt
CCC(=O)Nc1nnc(CSCc2ccc(F)cc2)s1 | -13 | 1.5 | nt | -2 | ? | -7 | -3% | nt | nt | nt
COc1cc(OC)cc(-c2c(-c3ccc(F)cc3)c3cc(-c4ccc(OC)nc4)ccc3n2C)c1 | nt | -1.1 | -0.3 | 4 | nt | nt | nt | 8 | 12 | 5.1
O=c1[nH][nH]cc1C=Nc1ccc(Cl)cc1 | -1 | -0.2 | -1.1 | -7 | -0.6 | -29 | nt | 23 | 21 | -1.1
Cc1nn(C)c(C)c1S(=O)(=O)N1CCCC(C(=O)N2CCN(c3ccccc3)CC2)C1 (stereo unspecified) | -6 | 0.8 | 4.8 | 0 | 6.6 | 1 | 7% | -4 | -1 | -2.5
NNC(=S)Nc1ccc(S(=O)(=O)N2CCOCC2)cc1 | -18 | 1.4 | 3.6 | 2 | -3.2 | 1 | 8% | -3 | -7 | -9.2
CCN(CC)CCN1C(=O)c2cccc3cc(N)cc(c23)C1=O | 16 | 0.0 | -9.3 | 41 | -20 | -15 | 24% | 2 | -6 | -6.3
COc1ccc(C(C(=O)NC2CCCC2)N(C(=O)c2ccco2)c2cc3c(cc2C(C)=O)OCO3)cc1OC (stereo unspecified) | 1 | 0.3 | -1.9 | 8 | 3.5 | 3 | 0% | 2 | 0 | -0.4
Cn1c(=O)nc2n(Cc3ccccc3)c3ccccc3cc-2c1=O | 0 | 0.9 | 3.5 | 5 | 121* | -11 | 10% | 14 | 7 | 21
Nc1ccc(-c2nc3cc([N+](=O)[O-])ccc3o2)cc1 | -5 | -3.4 | -2.5 | 9 | -3.9 | -5 | nt | -4 | -1 | 4.9
O=S(=O)(c1cc(-c2nnc(-c3ccc(Br)cc3)o2)ccc1Br)N1CCCCCC1 | 38 | 0.0 | nt | 0 | 1.2 | -4 | 5% | nt | nt | nt
COc1ccc(N2CCN(c3nc4cc(C)ccc4cc3C=O)CC2)cc1 | -8 | 0.7 | 3.4 | 0 | -1.7 | 2 | -6% | 6 | 0 | 14

Source: PubChem BioAssay
